Bioassay records deposited in PubChem by several laboratories.
WNV protease inh = inhibitors of West Nile virus NS2B-NS3 protease | P06935 | WNV NS2B-NS3 protease, fluorogenic substrate Ex360/Em465; stronger effect = lower value | z-score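 (tested at a level between 10 and 100 µM)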 | hit rate 0.18% among 65,000 | AID 577;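 active = z-score at -3 or under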;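 note: score is relative to mean and spread of the compound wells of a plate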
Target sequence (P06935 1371-1501 limits assumed): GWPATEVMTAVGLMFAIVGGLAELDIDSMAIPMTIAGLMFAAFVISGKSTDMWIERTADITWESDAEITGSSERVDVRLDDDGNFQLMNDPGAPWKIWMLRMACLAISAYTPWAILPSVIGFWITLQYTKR
Target sequence (P06935 1502-1679 limits assumed): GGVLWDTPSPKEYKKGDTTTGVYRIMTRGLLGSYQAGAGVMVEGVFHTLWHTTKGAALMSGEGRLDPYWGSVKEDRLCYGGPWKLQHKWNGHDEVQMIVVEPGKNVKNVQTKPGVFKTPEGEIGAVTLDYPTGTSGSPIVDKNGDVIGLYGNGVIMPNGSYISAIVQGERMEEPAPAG
MT1-MMP promoter = inhibitors of MT1-MMP promoter transcription, cell-based, luciferase reporter, luminescence (AID 618); calls from a first round at 10 µM; hits with a dose series show EC50 in µM; hit rate 0.62% among 87,000; MT1-MMP promoter luciferase reporter cells, luminescence;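 active = over half of the reporter light lost at 10 µM or EC50 under 50 µM; inactive = the rest and hits that failed the dose series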;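 note: actives suppress MT1-MMP promoter-driven transcription so potencies describe inhibitors; HT1080 fibrosarcoma cells; overnight exposure; toxic or luciferase-blocking compounds were not removed from the actives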
Hsc70 = Hsc70 inhibitors, probe displacement, primary screen, biochemical, fluorescence polarization (AID 568). one-dose displacement, % at 20 µM; IC50 in µM for titrated hits. 83,000 tested, under 10 active. Hsc70 fluorescence polarization, probe displacement; higher % means a stronger effect; strong numbers were not always called active;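 active = displacement above 50% without optical interference and an IC50 on retest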;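 note: ATPase domain with a fluorescein-tagged ATP probe; 0% = vehicle and 100% = excess ADP; read after one hour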
An asterisk follows results filed as active; i = inactive; · = no result given. An excerpt; count on the stated rates, not on these rows.

SMILES	WNV protease inh	MT1-MMP promoter	Hsc70
CC1=CC(C)(C)N(S(=O)(=O)c2ccc(F)cc2)c2ccccc21	·	i	0.6%
CCCCCCNC(=O)c1c(N)n(/N=C/c2ccco2)c2nc3ccccc3nc12	0.15	i	-7.7%
COc1cccc(OC)c1C(=O)Nc1ccc(N2CCN(S(C)(=O)=O)CC2)cc1	0.54	i	1.6%
Cc1nnc2sc(-c3ccco3)nn12	1.1	i	1.7%
CC(CC(=O)Nc1ccc2c(c1)OCCO2)c1ccccc1 (stereo not given)	·	i	2.5%
CC1(C)Cc2nc(-c3ccccc3)n3cnnc3c2CO1	0.53	i	0.5%
CN(C)CC(=O)N1c2ccccc2CCc2ccc(NC(=O)c3ccc(N)cc3)cc21	0.12	i	-1.7%
Cc1nn(C)c(C)c1CN(C)C(=O)c1cnn2c1NC(c1ccccc1)CC2C(F)(F)F (stereo not given)	0.07	i	-2.6%
CCCCOc1ccccc1P(=O)(O)CP(=O)(c1ccccc1)c1ccccc1	0.01	i	-4.9%
Cc1ccc(NC(=O)Cc2nc(CSc3nnc(-c4ccc5c(c4)OCO5)o3)cs2)cc1	0.11	i	1.3%
CCOC(=O)N1CCN(C(=O)C2CCN(S(=O)(=O)c3cc(Cl)ccc3Cl)CC2)CC1	-0.06	i	-3.3%
COC(=O)Nc1ccc(NC(C)=O)cc1	0.86	i	4.7%
CCOC(=O)CSc1nc2cc(C)cc(C)c2cc1C#N	1	i	-9.9%
Cc1cc(C)c2[nH]c(=O)c(C(c3nnnn3C3CCCC3)N3CCOCC3)cc2c1 (stereo not given)	-0.15	i	4.9%
CCCOc1ccc(/C=N/O)cc1	·	i	7.4%
NS(=O)(=O)c1ccc(CCNC(=O)CCC2COc3ccccc3O2)cc1 (stereo not given)	-1.2	i	2.9%
CCOC(=O)N1CCN(C(=O)CN(C2CCCCC2)S(=O)(=O)c2ccc(C)cc2)CC1	1.2	i	0.0%
CS(=O)(=O)N(CC(=O)Nc1ccccc1C(=O)N1CCOCC1)c1ccc2c(c1)OCO2	0.95	i	-3.3%
COc1ccc(OCCCC(=O)Nc2nncs2)cc1	-1.8	i	0.7%
CC(C)CCNC(=O)C(c1ccncc1)N(Cc1cccs1)C(=O)Cn1nnc(-c2ccc(F)cc2)n1 (stereo not given)	·	i	2.7%
N/C(=N\O)c1ccc(NC(=O)c2cccs2)cc1	-0.95	i	0.8%
COc1ccc(Nc2ncnc3c2cnn3Cc2ccccc2)cc1	1.7	i	-1.6%
O=C(c1ccco1)N1CCN(c2nc3ccccc3n3nnnc23)CC1	0.64	i	20%
Nc1nc2n(n1)C(c1cccs1)CC(c1ccc(F)cc1)N2 (stereo not given)	-0.3	i	5.7%
Cc1cc[n+]2c3c(cccc13)CCC2	·	i	-0.4%

Whole records, looked up by structure:
Profile of CC1=CC(C)(C)N(S(=O)(=O)c2ccc(F)cc2)c2ccccc21 → WNV protease inh: ·; MT1-MMP promoter: i; Hsc70: 0.6%
Profile of COc1ccc(Nc2ncnc3c2cnn3Cc2ccccc2)cc1 → WNV protease inh: 1.7; MT1-MMP promoter: i; Hsc70: -1.6%

Copied from the list.
WNV protease inh with O=C(c1ccco1)N1CCN(c2nc3ccccc3n3nnnc23)CC1 is entered as 0.64
Hsc70 with CCCCOc1ccccc1P(=O)(O)CP(=O)(c1ccccc1)c1ccccc1 is entered as -4.9%
Hsc70 with CC1(C)Cc2nc(-c3ccccc3)n3cnnc3c2CO1 is entered as 0.5%
WNV protease inh with COc1ccc(Nc2ncnc3c2cnn3Cc2ccccc2)cc1 is entered as 1.7
WNV protease inh with N/C(=N\O)c1ccc(NC(=O)c2cccs2)cc1 is entered as -0.95
WNV protease inh with COC(=O)Nc1ccc(NC(C)=O)cc1 is entered as 0.86

The list continues:
SMILES	WNV protease inh	MT1-MMP promoter	Hsc70
Cc1cc(SCC(=O)c2ccc3c(c2)OCO3)nc2ccccc12	·	i	-9.6%
COC(=O)COc1ccc(S(=O)(=O)NCc2ccco2)cc1	-0.08	i	6.0%
O=C(Cn1nc(-c2ccccc2)nc1-c1ccccc1)OC1CCCCC1	·	i	1.1%
CCSCCOC(=O)C1=C(C)NC(=O)NC1c1ccccc1 (stereo not given)	-0.92	i	-2.7%
O=C(CN1C(=O)COc2ccccc21)N(CCCN1CCOCC1)CC1CC=CCC1 (stereo not given)	1.1	i	1.2%
c1ccc2[nH]c(N3CCOCC3)nc2c1	-0.97	i	-0.2%
O=C(CSc1nn(-c2ccc(F)cc2)c(=S)s1)NC(=O)NCc1ccco1	0.66	i	-8.5%
C#CCNc1nc(C(C)C)nc2c1nnn2Cc1ccccc1F	-1.1	i	2.4%
Cc1cc(C(=O)CSc2nnc(C3COc4ccccc4O3)n2C)c(C)n1-c1ccc(F)cc1 (stereo not given)	-0.24	i	2.7%
COC(=O)c1ccc2c(=O)n(CC3CCCO3)c(SCC(=O)Nc3ccccc3OC)nc2c1 (stereo not given)	-0.97	i	-2.3%
Nc1ccc2nc3n(c(=O)c2c1)CCC3	0.99	i	-1.8%
COC(=O)c1ccccc1NC(=O)CN(C)S(=O)(=O)c1ccc(OC)c(C)c1	0.2	i	2.4%
Cc1ccc(S(=O)(=O)Nc2cc(C(=O)N3CCOCC3)ccc2N2CCCCC2)cc1	0.62	i	2.3%
COc1nc(N(C)C)nc(-n2nnc(C(C)=O)c2C)n1	0.26	i	-1.4%
CCOC(=O)c1oc2ccc(S(=O)(=O)n3nc(-c4ccc(OC)cc4)cc3N)cc2c1C	0.12	i	2.9%
CC(C)n1c(SCC(N)=O)nc2c1c(=O)[nH]c(=O)n2C	1.9	i	1.8%
CCOC(=O)c1c(NC(=O)CSc2nnc(CNc3ccc(C)cc3C)o2)sc(C)c1C	·	i	-0.2%
O=C(NCc1cccc(F)c1)c1noc2c1CCCC2	-0.02	i	-1.0%
FC(F)(F)c1cc(-c2ccco2)nc(NCc2cccnc2)n1	0.35	i	-4.6%
Cn1c(C(C#N)C(=O)c2ccco2)nc2ccccc21 (stereo not given)	-0.36	i	4.2%
CCN(CC)C(=O)CP(=O)(c1ccccc1)c1ccccc1	-0.36	i	-2.9%
Clc1ccc(SCc2cn3ccsc3n2)cc1	-0.05	i	-6.3%
Cc1cc(O)ccc1Nc1nc(-c2sc(N)nc2C)cs1	0.02	i	0.8%
CN(C(=O)c1cc2sccc2n1C)C1CCCCC1	0.9	i	2.4%
COCCN1C(=O)C(=O)/C(=C(/O)c2ccc(OCC(C)C)cc2)C1c1cccnc1 (stereo not given)	-0.29	i	0.1%
Going on with the list.
SMILES	WNV protease inh	MT1-MMP promoter	Hsc70
CC(=O)N1CCN(C(=O)Cn2c(=O)oc3ccccc32)CC1	·	i	5.3%
CN(CC(=O)O)S(=O)(=O)c1cc(Cl)ccc1Cl	0.79	i	-2.1%
Cc1nn(-c2ccccc2)c2sc(C(=O)n3cccn3)cc12	-0.79	i	-6.2%
COc1ccc(-c2nnc(SCC(=O)N3CCOCC3)o2)cc1	-0.08	i	-3.7%
COCCSc1nnc(-c2cccc(C#N)c2)n1C	-0.82	i	-1.6%
C/C(N)=C(\C#N)C(=O)NCc1ccccn1	-0.25	i	-0.5%
O=C(c1cccc(F)c1F)N1CCCC1	·	i	2.3%
CC(C)C(c1nnnn1Cc1ccc(F)cc1)N1CCN(C(=O)c2ccco2)CC1 (stereo not given)	0.7	i	-4.2%
COC(C(=O)Nc1ccccc1F)c1ccccc1 (stereo not given)	·	i	1.6%
O=C(O)/C(=C1/OC(=O)c2ccccc21)c1ccccc1	-0.23	i	-1.6%
CCOc1cc(/C=N/NC(=O)CNc2ccc(C)cc2)ccc1OC(=O)c1ccccc1	·	i	-3.3%
Cc1ccc2[nH]c3c(c2c1)CN(C(=O)CN1CCN(c2ccccc2F)CC1)CC3	-0.85	i	2.1%
CCOC(=O)c1sc(NC(=O)c2ccc(C)s2)cc1C	·	i	-11%
Cc1sc2nc(CN(CCc3ccccc3)C(=O)c3ccco3)[nH]c(=O)c2c1C	-0.7	i	0.2%
O=C(CC1C(=O)NC2CCCCC2N1C(=O)c1ccc(F)cc1)Nc1ccccc1 (stereo not given)	·	i	-0.7%
COc1ccc(CCN(Cc2cc3cccc(C)c3[nH]c2=O)C(=O)NC2CCCCC2)cc1OC	·	i	0.4%
O=C(O)CSc1ccccn1	1.3	i	0.6%
COC(=O)[C@@H](NC(=O)N(C1CCCCC1)C1CCCCC1)C(C)C	-0.89	i	0.5%
CCOC(=O)c1ccccc1NC(=O)CN1C(=O)CCS(=O)(=O)c2ccccc21	-1.2	i	3.0%
CO[C@@]1(NC(=O)Cc2cccs2)C(=O)N2C(C(=O)O)=C(COC(N)=O)CS[C@@H]21	0.21	i	2.0%
Nc1nonc1N1CCCCC1	-0.59	i	3.2%
CC(=O)Nc1ccc(NC(=O)CSc2nnc(-c3ccco3)n2Cc2ccco2)cc1	·	i	2.7%
Cc1ccccc1-c1nc2sc3c(c2c(=O)o1)CCC3	·	i	8.2%
Cc1cccc(CNC(=O)c2ccccc2N)c1	-0.42	i	8.2%
Cn1c(SCC(=O)N2CCN(c3ccccc3)CC2)nnc1-c1ccncc1	·	i	-4.2%

Part of the list above in order of number of heavy atoms, smallest number first:
SMILES	WNV protease inh	MT1-MMP promoter	Hsc70
CCCOc1ccc(/C=N/O)cc1	·	i	7.4%
Cc1cccc(CNC(=O)c2ccccc2N)c1	-0.42	i	8.2%
CC1(C)Cc2nc(-c3ccccc3)n3cnnc3c2CO1	0.53	i	0.5%
Cc1nn(C)c(C)c1CN(C)C(=O)c1cnn2c1NC(c1ccccc1)CC2C(F)(F)F (stereo not given)	0.07	i	-2.6%

(list continues)
SMILES	WNV protease inh	MT1-MMP promoter	Hsc70
Cc1cccc(C)c1NC(=O)c1c(-c2ccccc2)noc1C	-0.04	i	3.4%
Clc1ccc2nc(N3CCCCC3)[nH]c2c1	0.03	i	1.5%
O=C(Nc1cccc(C(=O)N2CCOCC2)c1)c1cncc(Br)c1	1	i	5.4%
COc1ccc(CCN(C)C(=O)C2CCCN(Cc3ccc(OC)c(OC)c3)C2)cc1OC (stereo not given)	-0.39	i	-1.5%
O=C(COC(=O)Cc1cccc(C(F)(F)F)c1)NCC1CCCO1 (stereo not given)	-0.5	i	-1.8%
O=S(=O)(c1ccc(OCC(O)CN2CCCC2)cc1)N1CCOCC1 (stereo not given)	·	i	-3.2%
O=C(OCc1ccco1)c1ccc(S(=O)(=O)N2CCCCC2)cc1	-0.41	i	-13%
O=C(OC(C(=O)NCc1ccc2c(c1)OCO2)c1ccc(Cl)cc1)c1ccco1 (stereo not given)	-0.78	i	-0.8%
C=CCOc1ccccc1CNn1nnnc1N	-1.3	i	-3.0%
Cc1ccc(C)n1-n1c(C)nc2sc(-c3ccccc3)cc2c1=O	0.36	i	3.2%
O=S(=O)(c1ccccc1)N1CCN(C2CCN(Cc3ccccc3)CC2)CC1	0.07	i	3.1%
CC1(C)Cc2c(c(N3CCCCC3)[nH]c(=S)c2C#N)CS1	-1.3	i	0.1%
CC1=C(C)CC(C(=O)c2ccc(C)cc2)C(C(=O)O)C1 (stereo not given)	·	i	-2.3%
CC1=C(C(=O)Nc2ccccn2)C(c2ccc(N(C)C)cc2)n2ncnc2N1 (stereo not given)	-0.73	i	-1.6%
CC(C)C(=O)Nc1nnc(SCC(=O)NC2CC2)s1	1.8	i	0.7%
CC(C)c1ccc(C(C(=O)NC2CCCC2)N(C(=O)CNC(=O)c2ccco2)c2cccnc2)cc1 (stereo not given)	·	i	6.4%
COC(=O)c1ccc(-c2nc3cc(N)ccc3o2)cc1	·	3.1µM*	3.3%
OC1CCCN(Cc2ccccc2)C1 (stereo not given)	·	i	0.8%
CC1CCCCC1NC(=O)C1CCN(C(=O)NC2CCCCC2)CC1 (stereo not given)	0.09	i	-2.6%
CSc1nc2ccccc2c(=O)n1N	-0.2	i	-1.7%
Cc1onc(C(=O)N2CCC(C(N)=O)CC2)c1-c1ccccc1Cl	-0.9	i	5.2%
O=C1CNC(=O)N1CC(=O)N1CCCc2ccccc21	·	i	5.3%
CN(C)CCSc1nc(-c2ccccc2)nc2c1COC(C)(C)C2	·	i	1.8%
c1ccc(-c2csc3ncnc(NCCCN4CCOCC4)c23)cc1	·	i	-3.5%
CCCCN(C)S(=O)(=O)c1cc(Br)cc2c1N(C(=O)C1CC1)CC2	0.11	i	3.1%
(next part)
SMILES	WNV protease inh	MT1-MMP promoter	Hsc70
Fc1cccc(-n2ncc(-c3nnnn3-c3ccccc3)c2C(F)(F)F)c1	·	i	1.5%
Cc1ccc(C(=O)NCCCn2ccnc2)o1	0.86	i	-3.7%
CN(C)c1ccc(-c2nn3c(-c4ccc(Cl)cc4Cl)nnc3s2)cc1	-0.07	i	-1.6%
CCOC(=O)CSc1nc2c(c(-c3ccc(C)o3)c1C#N)CCCC2	-1.1	i	-2.1%
O=C(CN1CCN(Cc2ccccc2)CC1)NC(=O)NC1CCCCC1	-1.3	i	-1.2%
CCOC(=O)c1sc(=S)n(C)c1C	·	i	0.7%
CCCNS(=O)(=O)c1cccc2cccnc12	-0.41	i	1.9%
CCC(C)N1CC(O)=C(c2nc3ccccc3[nH]2)C1=N (stereo not given)	-0.02	i	3.9%
CCn1c(N)c(C(=O)NCc2ccco2)sc1=S	1	i	-1.2%
Cc1cccc(N2CCCn3c2nc2c3c(=O)n(CCN3CCOCC3)c(=O)n2C)c1	-1.1	i	-3.2%
CCC(=O)c1ccc(OCCN2CCOCC2)cc1	-1.2	i	7.1%

Results in MT1-MMP promoter, for some of the entries so far:
| structure | MT1-MMP promoter |
| --- | --- |
| Cc1cccc(N2CCCn3c2nc2c3c(=O)n(CCN3CCOCC3)c(=O)n2C)c1 | i |
| Cc1ccc(C(=O)NCCCn2ccnc2)o1 | i |
